CBX7 inh = blocks human CBX7 binding to H3K27me3 peptide; O95931; AlphaScreen His6-CBX7 / biotin-H3K27me3 peptide binding; stronger effect = lower value; normalised signal (fraction of DMSO) (no concentration beside the values); 66,000 tested, 1.1% active; in the data active = normalised signal below about 0.5;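 note: 100 nL library stock added to about 20 µL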
Target sequence (O95931 whole entry, looked up): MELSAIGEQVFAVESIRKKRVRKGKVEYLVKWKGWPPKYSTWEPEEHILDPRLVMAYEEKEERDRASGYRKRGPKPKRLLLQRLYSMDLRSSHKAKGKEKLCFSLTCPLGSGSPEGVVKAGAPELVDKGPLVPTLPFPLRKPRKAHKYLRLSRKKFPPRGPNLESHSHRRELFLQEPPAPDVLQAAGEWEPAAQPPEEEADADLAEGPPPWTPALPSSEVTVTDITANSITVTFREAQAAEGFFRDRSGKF
CBX7 inh z-score = also measured in CBX7 inh; calls as there; z-score; measured here: z-score of CBX7 signal; some inactives read as strong as hits; reference of the scale not given here;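 same signal on another scale; lower means less binding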
* hit, by the source's call.

SMILES	CBX7 inh	CBX7 inh z-score
O=C(Cc1ccccc1)Nc1cccc(-c2cn3ccccc3n2)c1	0.919	-2.3
Cc1ccc(-c2nc(S(=O)(=O)c3ccccc3)c(SCC(N)=O)o2)cc1	1.01	0.0816
CCC(C)NC(=O)c1sc2ncn(CC(=O)Nc3ccccc3OC)c(=O)c2c1C (stereo not given)	1.07	0.734
COc1ccc(C(=O)Nc2cc3nn(-c4ccccc4)nc3cc2C)cc1OC	1.03	0.907
CC1CCN(Cc2c(O)ccc3cc(-c4nc5ccccc5[nH]4)c(=O)oc23)CC1	1.05	1.43
Cc1ccc(-n2cc(C(=O)Nc3cccc(C(F)(F)F)c3)c3ccccc3c2=O)cc1C	0.972	-0.392
CC(C)c1ccc(NC(=O)c2cc(-c3cccs3)nc3ccccc23)cc1	1.06	1.62
COc1ccc(NC2CC(=O)N(Cc3ccccc3)C2=O)cc1 (stereo not given)	1.18	0.412
CN(C)C(=O)N1CCC(C(=O)NCCc2ccccc2)CC1	1.03	1.66
CC1CCN(S(=O)(=O)c2cccc(-c3cn4cc(Cl)ccc4n3)c2)CC1	1.06	2.47
O=C(NC1CCCCCCC1)C1c2cccn2CC(=O)N1C1CC1 (stereo not given)	0.98	-0.0496
CC1=Nc2cc(C(=O)NCCN3CCOCC3)ccc2Sc2ccccc21	1	0.0598
CCOc1ccc(Cn2c(-c3nonc3NC(C)=O)nc3ccccc32)cc1OCC	1.06	0.0643
O=C(CCCC1=NS(=O)(=O)c2ccccc2N1)NCCc1ccc(Cl)cc1	1.04	0.903
CC(=O)N1CCc2cc(S(=O)(=O)Nc3c(C)cc(C)cc3C)ccc21	1.11	3.75
CCOC(=O)c1c(C)n(C)c2ccc(OCC(O)CNc3ccccc3)cc12 (stereo not given)	1.01	0.596
Cc1ccc(N2CC(C(=O)Nc3cccc(F)c3)CC2=O)cc1 (stereo not given)	0.983	-0.325
O=C(Nc1ccc(F)cc1)c1cnc(N2CCN(c3ccccn3)CC2)c2ccccc12	0.969	-1.03
Fc1ccc(C(c2ccc(F)cc2)N2CCN(CCCc3c[nH]c4ccccc34)CC2)cc1	0.487*	-12.8*
CC(C)Oc1ccc(C(=O)Nc2c3c(nn2-c2cccc(Cl)c2)CSC3)cc1	1	0.0653
O=C(NC1CCCC1)C(c1ccccc1)N1CCCC1 (stereo not given)	1.06	0.353
COc1ccc(Cc2nnc(SCC(=O)Nc3cc(C(F)(F)F)ccc3Cl)o2)cc1	1.03	0.255
Cc1ccc2c(c1)-c1c(cnn1CC(=O)Nc1ccccc1C)CO2	0.953	-0.886
CCOc1ccc(S(=O)(=O)N2CCCCC2)cc1-c1nc2c(C(C)(C)C)nn(C)c2c(=O)[nH]1	0.929	-0.944

Shown comma-delimited: part of the list above.
SMILES,CBX7 inh,CBX7 inh z-score
COc1ccc(Cc2nnc(SCC(=O)Nc3cc(C(F)(F)F)ccc3Cl)o2)cc1,1.03,0.255
Cc1ccc(N2CC(C(=O)Nc3cccc(F)c3)CC2=O)cc1 (stereo not given),0.983,-0.325
Cc1ccc2c(c1)-c1c(cnn1CC(=O)Nc1ccccc1C)CO2,0.953,-0.886
CC(C)Oc1ccc(C(=O)Nc2c3c(nn2-c2cccc(Cl)c2)CSC3)cc1,1,0.0653
CCOc1ccc(S(=O)(=O)N2CCCCC2)cc1-c1nc2c(C(C)(C)C)nn(C)c2c(=O)[nH]1,0.929,-0.944
CCOC(=O)c1c(C)n(C)c2ccc(OCC(O)CNc3ccccc3)cc12 (stereo not given),1.01,0.596

Carrying on.
SMILES	CBX7 inh	CBX7 inh z-score
COc1ccccc1C(=O)Nc1sc2c(c1C(N)=O)CCCC2	1.27	2.6
COc1ccccc1CNC(=O)CCNC(=O)Cn1ccc2ccccc2c1=O	1.01	0.236
Cc1onc(-c2ccccc2Cl)c1C(=O)Nc1ccc(OC(C)C)cc1	1.03	0.903
Cc1cccc(CCNC(=O)C2CCN(S(=O)(=O)c3cccc4nsnc34)CC2)c1	1.02	0.21
Cc1ccc(C)c(NC(=O)C2CC(O)CN2C(=O)Oc2ccccc2)c1 (stereo not given)	1.01	0.307
CCOc1ccc(-n2c(C)nc3cc(C(=O)NCc4cccnc4)ccc32)cc1	0.952	-1.17
CCOC(=O)c1ccc(NC(=O)[C@@H](c2ccccc2)N2Cc3ccccc3C2=O)cc1	0.961	-0.885
CCN(CC)c1nc(C)nc2sc(C(=O)Nc3ccc(OC)c(Cl)c3)c(C)c12	1.09	2.4
CCN(CC)c1cc(C)c2cc(NC(=O)c3cccc(Cl)c3)ccc2n1	0.961	-2.02
CCCCC(C(=O)Nc1ccc(C)cc1C)N1C(=O)c2ccccc2C1=O (stereo not given)	0.96	-0.1
O=S1(=O)N=C(c2ccc(Br)cc2)Nc2ccccc21	0.885	-0.871
CCOc1ccccc1NC(=O)c1c(NCc2cc(OC)c(OC)cc2OC)sc2c1CCC2	0.974	-1.35
COc1nnc(-c2ccc(C)c(S(=O)(=O)NC(C)c3ccccc3)c2)c2ccccc12 (stereo not given)	0.912	-1.97
COc1cccc(NC(=O)CSc2nc3nc(C)c(Cc4ccccc4)c(C)n3n2)c1	0.852	-0.596
Cc1ccc(CCNC(=O)CN2CCCN(Cc3ccc(F)cc3Cl)C2=O)cc1	1.01	0.117
CCN1CCN(C(=O)C2CC(=O)N(CCc3ccc(C)cc3)C2)CC1 (stereo not given)	1.02	0.626
CCCOc1ccc(-c2nc(Oc3ccc(Cl)cc3)c3ccccc3n2)cc1	1.19	5.09
COc1ccc(C(=O)Nc2ccccc2C(=O)Nc2cccc(C)n2)cc1	0.971	-0.489
CCCCCSc1nnc2c(n1)OC=Nc1ccc(Br)cc1-2	1.05	1.35
O=C(COc1ccc2oc3c(c2c1)CCCC3)Nc1cccc(Br)c1	1.08	0.797
CC(CCc1ccccc1)NC(=O)C1=CCN(S(=O)(=O)c2ccc(F)cc2)CC1 (stereo not given)	0.999	-0.0692
Cc1ccc(-n2c(Cc3cccn3C)nnc2SCC(=O)Nc2ccc(C(F)(F)F)cc2)cc1	0.948	-1.25
COc1ccc(OC)c(CCNC(=O)CCc2c(C)nc3c(-c4ccc(F)cc4)c(C)nn3c2C)c1	1.02	0.561
Cn1c(C(=O)NC2CCCCCC2)cc2sc(Cl)cc21	1.03	1.11

Part of the list above, as a markdown table:
| SMILES | CBX7 inh | CBX7 inh z-score |
| --- | --- | --- |
| CCN1CCN(C(=O)C2CC(=O)N(CCc3ccc(C)cc3)C2)CC1 (stereo not given) | 1.02 | 0.626 |
| CCCOc1ccc(-c2nc(Oc3ccc(Cl)cc3)c3ccccc3n2)cc1 | 1.19 | 5.09 |
| COc1ccc(C(=O)Nc2ccccc2C(=O)Nc2cccc(C)n2)cc1 | 0.971 | -0.489 |
| CCCCCSc1nnc2c(n1)OC=Nc1ccc(Br)cc1-2 | 1.05 | 1.35 |

(list continues)
SMILES	CBX7 inh	CBX7 inh z-score
O=C(O)c1ccccc1-c1ccccc1C(=O)Nc1nccs1	1.04	0.535
Cc1ccc2oc(-c3ccc(Cl)c(NC(=O)c4ccccc4F)c3)nc2c1	1.2	1.93
COc1ccccc1N1CCN(CC(O)COc2ccc(Cl)c(C)c2)CC1 (stereo not given)	0.99	-0.329
COc1ccc(C(=O)Nc2nc3c(s2)CCc2ccccc2-3)cc1	0.991	-0.154
Clc1ccc2nc(-c3ccccn3)cc(-c3ccccc3)c2c1	1.06	0.619
Cc1ccc2c(c1)N(CCC(=O)N1CCOCC1)C(=O)C(C)O2 (stereo not given)	1.03	0.766
COc1ccc(-c2csc(Nc3cccc(O)c3)n2)cc1OC	0.869	-2.11
Cc1ccccc1C1CC(c2cccs2)Nc2nnnn21 (stereo not given)	0.887	-1.59
Cn1c(CCCNC(=O)c2cccs2)nc2ccccc21	1.06	1.64
COCCCNC(=O)CN1C(=O)CC(C)(C)Sc2ccccc21	1	0.0694
CCN1CCN(c2cc(C)c3cc(NC(=O)Cc4ccc(Cl)cc4)ccc3n2)CC1	1.09	0.593
COCCCNC(=O)c1cc(Sc2ccc(C)cc2)nc2ccccc12	1.05	0.987
CC(C)c1cc(C(=O)O)c2cc(Br)ccc2n1	1	0.028
Cn1cnnc1SCC(=O)Nc1ccc(Br)cn1	0.946	-1.34
COCCN1Cc2cccc(C(=O)NCc3ccccc3OC)c2C1=O	0.991	-0.00924
Cc1nnc(Sc2cc(C(=O)NCCCN(C)c3ccccc3)c3ccccc3n2)s1	0.922	-1.34
O=C(NCc1ccc(Cl)cc1)C1CCN(S(=O)(=O)c2cccs2)CC1	1.05	0.0483
O=C(CC1(O)C(=O)N(Cc2ccc(Cl)cc2)c2ccccc21)c1ccc2c(c1)CCCC2 (stereo not given)	0.749	-0.435

Structural class, those above with two or more sulfur atoms (four)
SMILES	CBX7 inh	CBX7 inh z-score
Cc1ccc(-c2nc(S(=O)(=O)c3ccccc3)c(SCC(N)=O)o2)cc1	1.01	0.0816
Cc1cccc(CCNC(=O)C2CCN(S(=O)(=O)c3cccc4nsnc34)CC2)c1	1.02	0.21
Cc1nnc(Sc2cc(C(=O)NCCCN(C)c3ccccc3)c3ccccc3n2)s1	0.922	-1.34
O=C(NCc1ccc(Cl)cc1)C1CCN(S(=O)(=O)c2cccs2)CC1	1.05	0.0483

An excerpt, so the mix of outcomes need not match the whole.
